Insulin prom inh – TRM-6 insulin promoter activity inhibition; TRM-6 cells (human fetal islet line), insulin promoter-eGFP reporter, imaging; reporter expression induced with tamoxifen; inhibition, % at 2 µM; 130,000 tested, 0.9% active;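 active = inhibition above the mean plus 3 SD, with well images judged a real hit on visual review, cut at about 60% in these data, passing the limit was not always enough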
RGS16-Gao – regulators of human RGS16-Galphao interaction. bead-based flow cytometry RGS16-Galphao binding, fluorescence; actives lie on both sides. binding response (% of control), % at 10 µM. 220,000 tested, 0.38% active. O15492+P09471;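 active = below 25% or above 175%, edge rows of some plates excepted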;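 note: Galphao activated by GDP with aluminum fluoride before binding; 100% = wells without compound and 0% = beads without RGS; some results beyond the cut were filed as inactive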
Target sequence (O15492 whole entry, looked up): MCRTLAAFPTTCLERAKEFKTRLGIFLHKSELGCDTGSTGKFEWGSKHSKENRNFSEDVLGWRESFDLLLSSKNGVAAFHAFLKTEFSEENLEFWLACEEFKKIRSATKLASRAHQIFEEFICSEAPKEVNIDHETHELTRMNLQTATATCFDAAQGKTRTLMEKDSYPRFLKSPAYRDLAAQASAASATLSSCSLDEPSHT
Target sequence (P09471 whole entry, looked up): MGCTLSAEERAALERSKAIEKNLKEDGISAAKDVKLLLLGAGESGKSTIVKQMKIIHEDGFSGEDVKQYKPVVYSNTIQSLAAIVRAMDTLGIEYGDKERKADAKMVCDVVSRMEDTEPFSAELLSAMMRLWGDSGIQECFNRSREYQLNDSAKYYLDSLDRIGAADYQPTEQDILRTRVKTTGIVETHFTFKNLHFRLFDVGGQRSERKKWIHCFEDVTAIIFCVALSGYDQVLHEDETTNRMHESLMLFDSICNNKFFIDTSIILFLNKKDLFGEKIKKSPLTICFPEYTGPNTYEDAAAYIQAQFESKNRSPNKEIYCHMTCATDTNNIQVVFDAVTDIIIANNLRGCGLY
PKD1 kinase inh – inhibitors of human PKD1 kinase | AID 797 | inhibition, %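 (about 10 µM by stock and volumes)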 | 200,000 tested, 0.056% active | PKD1 kinase fluorescence polarization assay;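 active = inhibition of 50% or more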;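 note: controls were vehicle for no effect and a reference inhibitor for full effect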
HSV augment – HSV replication enhancement; HSV replication augmentation in cells, fold increase; maximum fold increase; 220,000 tested, 0.005% active;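 active = peak rise of 1.5-fold or more in the series; tested in PC3 cells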;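 note: first round at 10 µM; read as green reporter fluorescence; hits show the peak of a series up to 25 µM; 1 = signal of infected wells without compound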
GALR2 agonist – activates the human galanin receptor 2; O43603; GALR2-expressing cells, agonist activation read-out; activation, %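 (tested at 5 µM)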; 140,000 tested, 0.48% active;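 active = above mean plus 3 SD of all compounds, about 5% in these data, not always enough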;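 note: 0% = vehicle buffer wells and 100% = reference agonist at full effect; tested in CHO reporter cells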
Target sequence (O43603 whole entry, looked up): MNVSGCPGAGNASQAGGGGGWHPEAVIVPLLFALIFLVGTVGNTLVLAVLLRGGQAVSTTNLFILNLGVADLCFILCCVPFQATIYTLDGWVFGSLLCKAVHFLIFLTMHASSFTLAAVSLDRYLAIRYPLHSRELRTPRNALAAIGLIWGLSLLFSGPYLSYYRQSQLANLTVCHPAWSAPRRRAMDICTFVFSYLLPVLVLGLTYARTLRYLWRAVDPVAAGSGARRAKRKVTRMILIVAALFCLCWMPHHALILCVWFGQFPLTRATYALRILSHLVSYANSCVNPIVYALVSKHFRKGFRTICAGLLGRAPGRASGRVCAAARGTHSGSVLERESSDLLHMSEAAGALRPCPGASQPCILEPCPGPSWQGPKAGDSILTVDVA
Insulin prom inh cell count – further read-out of Insulin prom inh, marked with its call; normalized cell count, %; measured here: cell count, toxicity; reference of the scale not given here;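 cells exposed to compound for 48 h; stained nuclei by imaging scaled within each plate; lower means fewer cells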
HSV augment primary fold – second read-out of HSV augment, no call of its own (marks repeat the call); fold increase; compound at 10 µM; measured here: primary screen fold increase 10 uM; tested in PC3 cells;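 GFP signal in the first replicate; 1 = infected wells without compound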
* = called active by the depositor; i = inactive; / = no result given; [ ] = dose if it differs, or a comment.

#	SMILES	Insulin prom inh	HSV augment primary fold	PKD1 kinase inh	Insulin prom inh cell count	GALR2 agonist	RGS16-Gao	HSV augment
1	CN1CCN(C(=O)Nc2cccc(-c3ccccc3)c2)CC1	/	1.1	/	/	/	104	i
2	O=C(CNC(=O)c1ccc(-c2ccccc2)cc1)OCc1ccc(Br)cc1	-400	0.97	11	38	-1.2	102	i
3	COc1cc(-n2nnnc2SC)c(OC)cc1Cl	-21	1.1	-2	61	/	102	i
4	CC(C)N=C1SCC(C)(/C=N/O)S1 (stereo not drawn)	17	1.3	-5	123	-1.4	101	i
5	CC(C)Cn1cnc2c(=O)oc3ccccc3c21	17	1.1	-2	86	-1.3	86	i
6	Cc1ccc(OCCSc2ncccn2)c(C)c1	/	1	1	/	/	96	i
7	Cc1sc2nc(CN3CCOCC3)nc(N3CCOCC3)c2c1C	-4	0.92	-5	107	-1.2	413	i
8	O=C(CSc1nnc(-c2ccc(S(=O)(=O)N3CCCC3)cc2)o1)NCc1ccccc1	-12	0.6	-12	64	-0.6	103	i
9	C(=N\N(c1ccccc1)c1ccccc1)/c1ccc(N2CCOCC2)s1	-25	1.1	6	63	-0.3	76	i
10	CC1CCc2cc(F)cc3c(=O)c(C(=O)O)cn1c23 (stereo not drawn)	14	0.99	-7	101	-0.4	104	i
11	Cc1ccc(S(=O)(=O)N(C)c2cc(S(N)(=O)=O)c(C)cc2C)cc1	/	0.85	-5	/	/	98	i
12	CC1(C)C(=O)Nc2ccccc2N1C(=O)Cn1ncc(Cl)c(Cl)c1=O	/	0.64	/	/	/	91	i
13	CSc1n[nH]c(NC(C)=O)n1	8	1	-1	109	-2.0	99	i
14	C=CCNC(=O)c1ccccc1NC(=O)c1ccccc1	55	1.1	-6	155	0.5	108	i
15	O=[N+]([O-])c1cc(S(=O)(=O)NCCN2CCOCC2)ccc1Sc1nnnn1-c1ccccc1	31	/	-2	97	-1.1	108	/
16	Cc1ccc(S(=O)(=O)c2n[nH]n3c2nc(=O)c2ccccc23)cc1	/	0.93	-6	/	0.0	90	i
17	Cc1[nH]nc2c1C1(CCC(c3ccccc3)CC1)C(C#N)=C(N)O2 (stereo not drawn)	0	0.94	11	135	-1.8	94	i
18	O=C(O)c1ccc2c(c1)C(=O)N(Cc1ccccc1)C2=O	-43	1.1	1	109	-0.6	99	i
19	Cc1ccc2nc3sc(-c4nnc(-c5ccccc5[N+](=O)[O-])o4)c(N)c3cc2c1	-42	/	-7	59	-2.9	92	/
20	CS(=O)(=O)Cc1cc(Sc2ccccc2)nc(-c2ccncc2)n1	/	0.92	0	/	/	105	i
21	Cc1nnc(NC(=O)CSc2ccc3nnc(-c4cccnc4)n3n2)s1	19	0.85	-12	105	/	102	i
22	CCCN1CCN(C(=O)Nc2ccc(C(=O)OCC)cc2)CC1	47	0.88	1	145	-0.2	98	i
23	CCCCCC(=O)NN=C1CCN(Cc2ccccc2)CC1	8	1.2	18	72	-0.4	114	i
24	COc1ccccc1C1CC(=O)NC(SCC(=O)Nc2ccccc2)=C1C#N (stereo not drawn)	/	0.67	8	/	-6.5	101	i
25	Cc1cc(NC(=O)c2ccccc2)ncc1NC(=O)c1cccs1	/	0.86	-8	/	/	98	i
26	CC1(C)CC(C(N)=S)CCO1 (stereo not drawn)	/	0.92	/	/	/	98	i
27	COc1cc(OC)c(OC)cc1CNc1cc(C)ccc1OC	-9	0.98	-3	131	-0.6	103	i
28	O=C(CSc1nnc(-c2cccs2)o1)c1cccs1	-8	1.1	7	152	0.1	99	i
29	CCC(C)NS(=O)(=O)c1ccc(N)cc1 (stereo not drawn)	/	0.92	-6	/	/	106	i
30	O=C(O)CSc1nnc(-c2ccccc2Br)n1-c1cccc(C(F)(F)F)c1	/	1	-10	/	/	105	i

Reprinted from the part before: 5 entries, followed by the next part.
#	SMILES	Insulin prom inh	HSV augment primary fold	PKD1 kinase inh	Insulin prom inh cell count	GALR2 agonist	RGS16-Gao	HSV augment
26	CC1(C)CC(C(N)=S)CCO1 (stereo not drawn)	/	0.92	/	/	/	98	i
27	COc1cc(OC)c(OC)cc1CNc1cc(C)ccc1OC	-9	0.98	-3	131	-0.6	103	i
28	O=C(CSc1nnc(-c2cccs2)o1)c1cccs1	-8	1.1	7	152	0.1	99	i
29	CCC(C)NS(=O)(=O)c1ccc(N)cc1 (stereo not drawn)	/	0.92	-6	/	/	106	i
30	O=C(O)CSc1nnc(-c2ccccc2Br)n1-c1cccc(C(F)(F)F)c1	/	1	-10	/	/	105	i
31	COc1ccc(C(=S)N2CCNCC2)cc1	27	1	-3	129	-1.8	101	i
32	Cc1cc(S(=O)(=O)NC(C)C)ccc1OCC(=O)NCc1ccccc1	/	1	12	/	/	99	i
33	CC(=O)c1ccc(NC(=S)NCc2cccnc2)cc1	0	0.9	-1	81	/	101	i
34	CN(C)S(=O)(=O)NC(c1ccccc1)c1ccccc1	13	0.95	-10	156	0.1	107	i
35	CCOc1ccc2c(c1)n(CO)c(=S)n2CO	-33	0.84	-9	55	1.6	104	i
36	CNC(=O)C1=C(C)n2c(nc3ccccc32)NC1c1ccc(OC)cc1 (stereo not drawn)	0	1	1	63	1.2	127	i
37	Cc1nnc(SCc2ccc3c(c2)OCO3)s1	37	0.91	-8	101	-2.2	99	i
38	O=C1CCC(=O)N1c1ccc(NC2CCN(Cc3ccccc3)CC2)c([N+](=O)[O-])c1	50	1.1	-6	143	/	107	i
39	Cc1noc(C)c1COC(=O)c1cc2ccccc2cc1O	-8	1	-3	123	-2.5	100	i
40	O=C(CSCc1ccc(Cl)cc1)Nc1ccc(S(=O)(=O)N2CCOCC2)cc1	5	0.86	-14	119	-1.2	107	i
41	S=C(NCc1cccnc1)Nc1cccc(Cl)c1	7	1	-2	139	-1.4	105	i
42	Nc1nc(NCc2ccccc2)nc(NCc2ccccc2)c1[N+](=O)[O-]	-36	0.92	6	121	0.4	106	i
43	COc1ccc(CC(=O)Nc2ccc3c(c2)CCC3)cc1	/	0.97	0	/	0.5	105	i
44	O=C(Nc1ccc(S(=O)(=O)N2CCCC2)cc1)C1CCCN1C(=O)c1cccs1 (stereo not drawn)	-47	0.9	-6	142	/	103	i
45	O=C(CCC1CCCN(C(=O)Cc2ccc(F)cc2)C1)N1CCN(c2ccccn2)CC1 (stereo not drawn)	/	1	-2	/	/	103	i
46	CC(=O)Nc1ccc2c(c1)nc1n2CCN(C2CCCCC2)C1	-13	0.73	0	116	/	111	i
47	COc1cc2c(cc1O)CCN(C(=O)c1ccco1)C2C (stereo not drawn)	3	0.82	3	107	-2.0	97	i
48	COC(=O)CSc1[nH]c(=O)cc(C)c1C#N	-5	1	-6	121	-2.0	104	i
49	Cc1cccc(N2CCN(C(=O)Cn3sc4nc(C)cc(C)c4c3=O)CC2C)c1 (stereo not drawn)	/	0.86	-8	/	-1.4	22*	i
50	O=C1c2ccccc2C(=O)C12OC2c1ccc(Cl)cc1Cl (stereo not drawn)	21	0.89	0	73	-1.8	99	i
51	CCc1ccccc1NC(=S)N(CCN(C)C)C(C)c1ccco1 (stereo not drawn)	-64	0.91	-8	86	/	100	i
52	CCCn1cc([C@@H]2C[C@H]3CN(Cc4cccc(Cl)c4)C(=O)[C@]34CCCN24)c(C)n1	/	0.96	/	/	/	95	i
53	Cc1occc1C(=O)NC(C)C1CCCO1 (stereo not drawn)	23	1.1	-2	127	-1.3	113	i
54	c1ccc(COc2ccc(CNn3cnnc3)cc2)cc1	0	0.71	2	128	-1.2	108	i
55	C=CCn1c(SCc2ccc(C(=O)OC)cc2)nnc1-c1sc(N)nc1C	-43	0.91	-2	101	-0.7	104	i
56	O=C(c1cnccn1)N1CCN(S(=O)(=O)c2ccc3ccccc3c2)CC1	-15	1	-8	106	0.2	102	i
57	Cc1nc(NC2=NCN(CCN3CCOCC3)CN2)nc2c(C)cccc12	70	/	0	77	-2.2	/	/
58	O=C(CSc1ccc2c(c1)OCCO2)NCc1ccccc1	/	0.94	2	/	/	105	i
59	C/C(=N\NC(=O)CCc1ccccc1)C1C(=O)c2ccccc2C1=O	/	1.1	6	/	/	96	i
60	COc1ccccc1NS(=O)(=O)c1cccc(NC(=S)NCCN2CCOCC2)c1	31	0.9	30	111	0.0	102	i

Three of the entries above in order of the HSV augment primary fold value, falling.
nr	Compound	HSV augment primary fold	PKD1 kinase inh	GALR2 agonist	RGS16-Gao	HSV augment
38	O=C1CCC(=O)N1c1ccc(NC2CCN(Cc3ccccc3)CC2)c([N+](=O)[O-])c1	1.1	-6	/	107	i
58	O=C(CSc1ccc2c(c1)OCCO2)NCc1ccccc1	0.94	2	/	105	i
22	CCCN1CCN(C(=O)Nc2ccc(C(=O)OCC)cc2)CC1	0.88	1	-0.2	98	i

Structural class, the entries above with fluorine (three)
#	SMILES	Insulin prom inh	HSV augment primary fold	PKD1 kinase inh	Insulin prom inh cell count	GALR2 agonist	RGS16-Gao	HSV augment
10	CC1CCc2cc(F)cc3c(=O)c(C(=O)O)cn1c23 (stereo not drawn)	14	0.99	-7	101	-0.4	104	i
30	O=C(O)CSc1nnc(-c2ccccc2Br)n1-c1cccc(C(F)(F)F)c1	/	1	-10	/	/	105	i
45	O=C(CCC1CCCN(C(=O)Cc2ccc(F)cc2)C1)N1CCN(c2ccccn2)CC1 (stereo not drawn)	/	1	-2	/	/	103	i

Next entries.
#	SMILES	Insulin prom inh	HSV augment primary fold	PKD1 kinase inh	Insulin prom inh cell count	GALR2 agonist	RGS16-Gao	HSV augment
61	CC(C)N(C(=O)CSc1nnc(NC(=O)c2ccco2)s1)C(C)C	-9	0.96	1	61	/	62	i
62	C=CCn1c(=O)c2ccc(C(=O)NCc3ccccc3)cc2n(Cc2ccccc2Cl)c1=O	12	0.81	-1	166	-0.7	83	i
63	Cc1ccccc1NC(=O)Cn1nnc(-c2ccc(CN3CCC(C)CC3)cc2)n1	/	0.46	/	/	/	102	i
64	Cc1cc(C)cc(NC(=O)C(Sc2nnc(C)c(=O)[nH]2)c2ccccc2)c1 (stereo not drawn)	/	1.1	/	/	/	110	i
65	O=C(Nc1ccccc1F)c1cc(S(=O)(=O)N2CCCCC2)cs1	-25	1.3	-5	135	-1.8	96	i
66	CCN(CC)CCN1C(=O)c2ccccc2NC1c1cccc(F)c1 (stereo not drawn)	-44	1	-24	95	-1.6	103	i
67	CCN(CC)S(=O)(=O)c1ccc2c(c1)c(=O)c(C(=O)N1CCN(c3ccccc3)CC1)cn2C	4	0.94	-4	130	-2.3	110	i
68	CCOC(=O)Cn1nc(-c2ccccc2)c2cnc3ccc(C)cc3c21	24	/	-3	78	-0.6	/	/
69	COc1ccc(N/C(N)=N/c2nc(CSc3ccc(Cl)cc3)cc(=O)[nH]2)cc1	i	0.8	-7	63	-2.1	102	i
70	O=C(c1ccco1)N1CCN(C(=O)c2cc(-c3ccncc3)nc3ccc(Br)cc23)CC1	6	0.95	-8	66	-1.9	/	i
71	CCN1CCN(c2ccc(NC(=O)c3ccc([N+](=O)[O-])o3)cc2Cl)CC1	i	0.66	6	2	/	100	i
72	CCc1cc2c(=O)c(-c3cnn(-c4ccccc4)c3)c(C)oc2cc1OCC(=O)Nc1cccc(C)c1	-11	0.98	-10	26	-0.1	257*[activator]	i

Assay outcomes (PubChem BioAssay)
